Rango complex inh: prevents formation of the Rango-importin beta complex | Rango CFP/YFP FRET sensor + importin beta, 45 min | AID 540263 | Q14974 | Potency, µM (series often up to 92.2 µM), inactives show at the highest dose inhibition of complex formation | 0.031% of 340,000 active; active = rising FRET ratio curve, often small or poorly fitted; inconclusive = mostly compound fluorescence or quenching in the first reads; inactive = flat curves in all reads;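 further: potency means the concentration at half of the fitted maximal effect; 0% = DMSO wells and 100% = buffer wells lacking importin beta; nearly all actives have a fitted effect of over 15% in size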
Target sequence (Q14974 whole entry, looked up): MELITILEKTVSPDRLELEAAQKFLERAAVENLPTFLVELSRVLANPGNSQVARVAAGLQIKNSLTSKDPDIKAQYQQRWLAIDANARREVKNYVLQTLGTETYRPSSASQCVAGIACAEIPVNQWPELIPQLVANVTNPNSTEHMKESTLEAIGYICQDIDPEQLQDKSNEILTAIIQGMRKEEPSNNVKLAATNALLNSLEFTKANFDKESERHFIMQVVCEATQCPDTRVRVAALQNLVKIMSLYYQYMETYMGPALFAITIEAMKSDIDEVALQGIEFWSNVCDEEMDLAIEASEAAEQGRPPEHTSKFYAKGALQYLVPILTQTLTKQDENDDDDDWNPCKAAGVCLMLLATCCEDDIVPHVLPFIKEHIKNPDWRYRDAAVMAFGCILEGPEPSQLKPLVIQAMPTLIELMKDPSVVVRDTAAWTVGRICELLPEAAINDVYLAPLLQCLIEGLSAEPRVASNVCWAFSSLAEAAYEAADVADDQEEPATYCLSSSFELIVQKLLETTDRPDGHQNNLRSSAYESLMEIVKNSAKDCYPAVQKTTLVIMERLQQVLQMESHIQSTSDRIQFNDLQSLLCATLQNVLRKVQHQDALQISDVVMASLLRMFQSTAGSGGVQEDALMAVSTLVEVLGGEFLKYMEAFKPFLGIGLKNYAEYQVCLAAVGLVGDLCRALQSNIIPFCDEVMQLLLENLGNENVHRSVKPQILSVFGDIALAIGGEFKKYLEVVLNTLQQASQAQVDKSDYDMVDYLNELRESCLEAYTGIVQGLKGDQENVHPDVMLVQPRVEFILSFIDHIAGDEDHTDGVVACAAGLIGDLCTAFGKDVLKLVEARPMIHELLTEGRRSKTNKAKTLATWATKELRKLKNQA
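Inhibition scored from the CFP 486 nm/YFP 530 nm FRET ratio 45 min after adding 0.125 microM importin beta to 50 nM Rango biosensor preincubated 5 min with compound (room temperature, PBS with DTT, Tween-20, BSA). No-importin wells as positive control.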
Rango dissoc inh: prevents RanGTP from dissociating the Rango-importin beta complex; O95149+P62826; AID 540253; Biochemical FRET Rango-importin beta, RanGTP-induced dissociation; 0.071% of 340,000 active; Potency, µM (doses to about 46.1 µM), for the others: top-dose activity change, negative = inhibition; active means falling FRET ratio curve, often poorly fitted, with flat reads before Ran was added; inconclusive means other falling curves, or compound fluorescence or quenching; inactive means flat or rising ratio curve;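 further: potency means the concentration at half of the fitted maximal effect; % of control where 0% means no effect; nearly all actives have a fitted effect of over 45% in size; -100% = wells without RanGTP and RCC1; the record marks most hits as doubtful in a second field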
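Rango (0.1 uM)–importin beta (0.25 uM) complex; RanGTP-RCC1 trigger; 45 min RT; CFP/YFP FRET read.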
miR-21 reporter: miR-21 reporter, rising signal; Potency, µM (titrated, usually from 38.3 µM), inactives show top-dose reporter change, positive = more light; 340,000 tested, under 10 active; HeLa miR-21 FLuc reporter, luciferase, 48 h; AID 2288; active = well fitted rising curve with a large enough effect; inconclusive = small, poorly fitted or top-dose-only effect; inactive = no such curve, though single readings can be large or run the other way;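 further: % of control where 0% means no effect; miR-21 action dims this reporter so a rising signal means less miR-21 action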
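Using DMEM plus 10% FBS, HeLa miR-21-FLuc cells are incubated with test compounds (final up to about 40uM) for 48 hours; firefly luciferase signal is then imaged following reagent-mediated lysis.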
GLA inh pH 4.5: inhibitors of human alpha-galactosidase A at pH 4.5. P06280. purified enzyme, 4-MU-alpha-Gal fluorescence, pH 4.5. activity change, negative = inhibition, % at 105 µM. 230,000 tested, under 10 active. AID 1467; inconclusive = small, poorly fitted or top-dose-only inhibition, or a rising curve; inactive = flat fitted curve, though single readings scatter; no compound was filed as active;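 further: 0% = full activity with enzyme and -100% = basal without enzyme; dose as in the result columns while the protocol names 77 µM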
* marks the source's active call; other numbers are inactive results; ? = inconclusive; / = not tested or not shown; & = joins results of further samples; [ ] = another dose, or the depositor's remark.

SMILES | Rango complex inh | Rango dissoc inh | miR-21 reporter | GLA inh pH 4.5
CC(C)c1ccc(OC(=O)c2cccc(S(=O)(=O)N3CCN(C)CC3)c2)cc1 | -3.7% | 2% | -1% | /
Cn1cccc1C(=O)NC(=O)COC(=O)c1ccccc1Sc1ccccc1C#N | 0.5% | 1% | -3% | -2
Cc1ccc(NC(=O)c2ccccc2NS(=O)(=O)c2ccc(F)cc2)cc1S(=O)(=O)N1CCCCC1 | -0.5% | 9% | ? | -11
Cc1ccccc1C(=O)Nc1cccc(NC(=O)c2cccnc2)c1 | -1.2% | 0% | 8% | /
O=C1C(SC(F)(F)C(F)F)=C(C(F)(F)F)OC2C3C=CC(C3)C12 (stereo not drawn) | -2.6% | -7% | 3% | -3
O=C(O)CSC1CC(=O)N(c2ccc(Br)cc2)C1=O (stereo not drawn) | 0.3% | 9% | -1% | /
CCCn1nc2cc(C(=O)NCc3ccc4c(c3)OCO4)ccc2c1OCC | 2.1% | -5% | -11% | 0
CCc1ccc2[nH]c(=O)c(C(c3nnnn3CCOC)N3CCN(c4ccc(F)cc4)CC3)cc2c1 (stereo not drawn) | -2.9% | -17% | 1% | -15
O=C(Nc1ccc(Br)cc1)/C(=C/c1cccc([N+](=O)[O-])c1)NC(=O)C1CCCCC1 | 0.2% | 15% | -1% | 2
Cc1ccc(NC(=O)CSCC(=O)NNC(=O)c2nn(C)c(=O)c3ccccc23)cc1 | -0.3% | -2% | / | /
Cc1ccccc1-n1nnnc1SCC(=O)Nc1ccc(S(=O)(=O)N2CCCC2)cc1 | -2.1% | 9% | -1% | -26
O=C(COc1ccccc1)Nc1ccc2c(c1)nc1n2CCSC1 | -5.2% | -7% | -56% | 4
Cc1ccc(S(=O)(=O)NNC(=O)Nc2cccc(C)c2C)c(C)c1 | -1.2% | -22% | -1% | /
Cc1ccccc1C(=O)OCc1nnc(-c2ccc(Cl)cc2)o1 | 7.6% | 5% | -29% | -8
CC1(C)Cc2ccccc2C(/C(=N/O)C(N)=O)=N1 | -1.0% | 8% | -1% | 0
O=C(NC1=NCCS1)c1cc(Cl)ccc1Cl | -0.1% | 1% | -8% | /
COC(=O)c1nn(-c2nc(-c3cccc(OC)c3)cc(C(F)(F)F)n2)cc1[N+](=O)[O-] | 0.0% | 16% | 5% | -1
Cc1ccc(S(=O)(=O)NC(=O)Nc2nnc(C3CC3)s2)cc1 | -1.3% | 1% | -11% | -17
COc1ccccc1-n1c(SCC(=O)O)nnc1-c1ccc(S(=O)(=O)N2CCCCC2)cc1 | 7.3% | 19% | 1% | 8
COc1ccc2[nH]c3c(c2c1)CCN1C(=O)C(CC(=O)NC(C)(C)C)C[C@H](C(=O)N2CCCCC2)[C@@]31C (stereo partly drawn) | -0.8% | -10% | / | /
CC1CCN(C(=O)CN(C)S(=O)(=O)c2cccc3nsnc23)CC1 | -0.2% | 8% | -2% | -1
Cc1ccc(NC(CC(=O)c2ccccc2)C(=O)O)cc1Cl (stereo not drawn) | ? | ? | -57% | -1
Cc1c(Cl)cccc1NC(=S)NC1CCN(Cc2ccccc2)CC1 | 1.7% | 2% | 0% | -7
COc1cc(NS(=O)(=O)c2ccc(NS(=O)(=O)c3ccccc3)cc2)nc(OC)n1 | 2.6% | -6% | -3% | 4
Cc1nc(N2CCOCC2)nc(OC(C)C)c1[N+](=O)[O-] | -0.5% | 0% | -22% | -6

Part of the list above in order of heavy-atom count, high to low:
SMILES | Rango complex inh | Rango dissoc inh | miR-21 reporter | GLA inh pH 4.5
O=C(COc1ccccc1)Nc1ccc2c(c1)nc1n2CCSC1 | -5.2% | -7% | -56% | 4
Cc1ccccc1C(=O)OCc1nnc(-c2ccc(Cl)cc2)o1 | 7.6% | 5% | -29% | -8
Cc1ccc(NC(CC(=O)c2ccccc2)C(=O)O)cc1Cl (stereo not drawn) | ? | ? | -57% | -1

Full records, quoted from the list:
COc1ccccc1-n1c(SCC(=O)O)nnc1-c1ccc(S(=O)(=O)N2CCCCC2)cc1 is listed as Rango complex inh = 7.3%; Rango dissoc inh = 19%; miR-21 reporter = 1%; GLA inh pH 4.5 = 8
O=C(Nc1ccc(Br)cc1)/C(=C/c1cccc([N+](=O)[O-])c1)NC(=O)C1CCCCC1 is listed as Rango complex inh = 0.2%; Rango dissoc inh = 15%; miR-21 reporter = -1%; GLA inh pH 4.5 = 2
CC1(C)Cc2ccccc2C(/C(=N/O)C(N)=O)=N1 is listed as Rango complex inh = -1.0%; Rango dissoc inh = 8%; miR-21 reporter = -1%; GLA inh pH 4.5 = 0

Next part:
SMILES | Rango complex inh | Rango dissoc inh | miR-21 reporter | GLA inh pH 4.5
Clc1ccccc1Cn1nnc2c(Nc3ccccc3)ncnc21 | 1.7% | 2% | -29% | 0
Cc1nnc(SCCn2c(N3CC(C)CC(C)C3)nc3c2c(=O)n(C)c(=O)n3C)s1 (stereo not drawn) | 0.2% | 0% | -5% | 2
O=C(NN1C(=O)NC2(CCCCC2)C1=O)c1ccc(-c2ccc(Cl)cc2)o1 | -1.5% | -4% | / | /
COc1cc(NC(=O)c2ncn[nH]2)cc(OC)c1OC | 7.2% | 9% | -6% | 2
CN(C)S(=O)(=O)N1CCN(c2ccnc3cc(Cl)ccc23)CC1 | -1.0% | -8% | 12% | /
OCCCn1c(CCNc2nc(-c3ccc(Cl)cc3)cs2)nc2cc(C(F)(F)F)ccc21 | -2.0% | -12% | / | /
COc1ccc(CNC(=O)c2ccc(Br)s2)cc1OC | 1.6% | 1% | -5% | /
Cc1cccc[n+]1CC(=O)c1ccc(Cl)cc1 | 0.6% | 0% | / | /
CCN1C(=O)CC(N2CCOCC2)C1=O (stereo not drawn) | -0.3% | 0% | -2% | 5
CCOC(=O)N1CCC(NC(=O)CCc2ccccc2)CC1 | -4.4% | -10% | -3% | /
O=C(NCc1ccco1)c1cccc(N2CCCC2=O)c1 | 1.1% | 11% | -3% | -12
C/C(N)=C(/C#N)C(=O)CSc1nc2ccccc2n1CC(C)C | 7.8% | -6% | -11% | 3
O=C(CSc1nnc(Cc2ccc(Cl)cc2)o1)Nc1ccccc1 | 4.5% | -10% | 0% | -8
O=C(NCc1cccnc1)C1CCCN(Cc2cnn(-c3ccccc3)c2-n2cccc2)C1 (stereo not drawn) | -2.2% | -4% | 1% | 6
COc1ccc(NC(=O)CCCNC(=O)Cn2cnc3sc(C)c(C)c3c2=O)cc1OC | -0.8% | 4% | 6% | /
COc1ccc(CCNC(=O)CN2CCN(c3cccc(Cl)c3)CC2)cc1OC | 0.1% | 5% | 1% | 6
O=c1[nH]c2ccc(NC(=S)Nc3ccc(Cl)cc3Cl)cc2[nH]1 | 0.5% | 14% | -5% | 5
O=C(COC(=O)c1ccc([N+](=O)[O-])s1)NNC(=O)c1ccccc1 | ? | 1% | / | /
N#Cc1c(N)nc(SCc2ccncc2)c(C#N)c1-c1cccs1 | -0.3% | 12% | 15% | -4
Cc1ccc(-c2nc3c(Cl)cc(Cl)cc3c(=O)n2O)cc1 | -0.2% | -16% | -1% | /
COC(=O)C1=C(C)N(CCc2cc(OC)c(OC)c(OC)c2)C(=O)N[C@H]1c1cccs1 | / | / | 4% | -11&-4
O=C(C[n+]1cccc(C(=O)Nc2ccccc2)c1)c1ccc([N+](=O)[O-])cc1 | 0.2% | -4% | 0% | /
COCCCn1c(SCC(=O)NNC(=O)c2cccc(O)c2)nnc1-c1ccncc1 | -2.0% | 8% | 1% | -6
COC(=O)CNC(c1ccccc1)c1cc(Br)ccc1NS(=O)(=O)c1ccc(C)cc1 (stereo not drawn) | 2.0% | 3% | 1% | 7
CCOC(=O)c1sc(N)nc1C(F)(F)F | -0.3% | -6% | / | /
Next part.
SMILES | Rango complex inh | Rango dissoc inh | miR-21 reporter | GLA inh pH 4.5
CS(=O)(=O)c1nc2c(cc1C#N)CCCC2 | 3.1% | 3% | -2% | 6
COc1ccccc1OCc1nnc(SCC(=O)Nc2nnc(C3CC3)s2)n1C | -0.4% | -8% | -1% | /
COc1ccc(C(=O)N/N=C/c2ccc(N(C)c3ccccc3)cc2)cc1 | ? | ? | / | /
CC(=O)Nc1ccc(NC(=O)C(C)Oc2ccc(C)nc2[N+](=O)[O-])cc1 (stereo not drawn) | -0.1% | -19% | / | /
OCC1OC(c2ccccc2)OC2COC(c3ccccc3)OC12 (stereo not drawn) | -2.4% | -14% | / | /
CC(=O)c1cn(CCOc2ccccc2C)c2ccccc12 | 0.3% | 1% | 24% | /
O=C(Nc1cccnc1)C1COc2ccccc2O1 (stereo not drawn) | 6.3% | 10% | -19% | 7
O=C(O)CCC(=O)N1N=C(c2ccccc2)CC1c1ccc(Br)cc1 (stereo not drawn) | 0.3% | 6% | -22% | /
C=C(C)C(=O)Oc1ccc(N2C(=O)[C@@H]3C4C=CC(C4)[C@@H]3C2=O)cc1 | 0.6% | -7% | 3% | /
COc1ccc(CNC(=O)C2CSC(c3ccc(OC)cc3)N2C(C)=O)cc1 (stereo not drawn) | -7.6% | -2% | 0% | -16
COc1ccc(C(=O)Nc2ccc3nc(C)c(C)nc3c2)cc1 | 4.6% | 4% | -49% | /
O=C(NCc1ccccc1)NC1(C(=O)N2CCCC2)CCCCC1 | -2.4% | -16% | -6% | 1
CCOC(=O)c1cc2sc(C)cc2n1CC(=O)Nc1cccc(C)c1C | -0.7% | 4% | -8% | -7
CCC1S/C(=C(\C#N)C(=O)NCc2ccco2)N(c2ccc(F)cc2)C1=O (stereo not drawn) | 0.4% | 3% | 1% | -6
O=C(Cc1cccc(NC(=O)C2CCN(C(=O)c3ccccc3)CC2)c1)Nc1cccc(C(=O)N2CCCC2)c1 | -4.1% | -1% | / | /
CCN1CCCC1CNCc1ccc(Cl)cc1Cl (stereo not drawn) | 2.4% | -13% | -4% | 0
O=C(CN1CCN(Cc2ccc(Cl)cc2)C1=O)NCCN1CCCC1 | -6.4% | -11% | -10% | 6
O=C(Nc1nc2cc3c(cc2s1)OCO3)c1ccc(N2C(=O)CCC2=O)cc1 | -11% | -18% | 1% | 10
CCC1COC(c2cccn2Cc2ccccc2Cl)=N1 (stereo not drawn) | -0.5% | -25% | -4% | -7
COc1ccc2c(c1OC)C(=O)OC2CC(=O)c1ccc2c(c1)OCO2 (stereo not drawn) | -4.0% | -10% | -2% | -6
Cc1cnc(NC(=O)CCNC(=O)c2ccccc2Cl)s1 | -1.2% | -6% | 0% | 0[21.1 µM]
CN(C)c1ccc(CN(C(=O)c2ccco2)C2CCS(=O)(=O)C2)cc1 (stereo not drawn) | 5.5% | 1% | 0% | -12
N#Cc1cccc2c1-c1ccccc1/C2=N/NC(N)=O | 1.4% | 10% | 13% | /
COc1cc(C(=O)NNC(=S)NC(=O)c2ccc(F)cc2)cc(OC)c1OC | 3.8% | 2% | 14% | 3
Cc1ccc(NC(=O)CN2CCCC2)c2c1CC(C)(C)O2 | 0.3% | 6% | 1% | 3
Going on with the list:
SMILES | Rango complex inh | Rango dissoc inh | miR-21 reporter | GLA inh pH 4.5
CCOC(=O)C[N+](CC)(CC)CC#Cc1ccccc1 | 2.8% | 3% | -2% | 4
Cc1nc2cc(NC(=O)NCc3ccccc3)ccc2o1 | -0.2% | -1% | -36% | -16
O=C(c1nc2nc(-c3cccs3)cc(C(F)(F)F)n2n1)N1CCN(Cc2ccccc2)CC1 | ? | -17% | -14% | ?
CC(=O)c1cc(C(=O)N2CCc3c([nH]c4ccccc34)C2C2CCCCC2)[nH]n1 (stereo not drawn) | ? | -16% | -2% | 4
COc1ccc(C2N(C(=O)N(C)C)CCN2S(=O)(=O)c2ccc(OC)cc2)cc1 (stereo not drawn) | -0.1% | 10% | 8% | /
CCCN(C(=O)Cn1nc(C)c([N+](=O)[O-])c1C)c1c(N)n(Cc2ccccc2)c(=O)[nH]c1=O | -2.1% | -2% | / | /
COc1ccc(OC)c(/C=N/N=C(\N)c2nonc2N)c1 | -1.5% | -9% | -18% | -3
CCN(CC(=O)Nc1ccc2c(c1)OCCO2)C(=O)/C=C/c1cccc(Br)c1 | 0.0% | -4% | / | /
O=C(CCC(=O)N(CC(=O)NC1CCCCC1)CC1CCCO1)Nc1nccs1 (stereo not drawn) | -0.2% | 1% | -1% | -1

Source: PubChem BioAssay

This is a subset. The share of hits here may be higher or lower than overall.
